KCNQ2 pot = potentiators of rat KCNQ2 potassium channel; Potassium voltage-gated channel subfamily KQT member 2 (Rattus norvegicus), O88943; CHO-K1 KCNQ2, FluxOR thallium flux fluorescence; active compounds read high; B-score at 10 µM; hit rate 0.54% among 310,000; AID 2239, 2010;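 active means fluorescence ratio B-score at least 3 SD of library B-scores, with initial fluorescence B-score within 3 SD, cut at about 5.3 in these data; same plate scores as AID 2156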;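 further: B-score of peak minus minimum over baseline fluorescence ratio after K+ and Tl+ stimulus; positive B-score means potentiation of KCNQ2 with more thallium influx and brighter signal; only the inactives scoring about 0 or higher are listed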
Target sequence (O88943 whole entry, looked up): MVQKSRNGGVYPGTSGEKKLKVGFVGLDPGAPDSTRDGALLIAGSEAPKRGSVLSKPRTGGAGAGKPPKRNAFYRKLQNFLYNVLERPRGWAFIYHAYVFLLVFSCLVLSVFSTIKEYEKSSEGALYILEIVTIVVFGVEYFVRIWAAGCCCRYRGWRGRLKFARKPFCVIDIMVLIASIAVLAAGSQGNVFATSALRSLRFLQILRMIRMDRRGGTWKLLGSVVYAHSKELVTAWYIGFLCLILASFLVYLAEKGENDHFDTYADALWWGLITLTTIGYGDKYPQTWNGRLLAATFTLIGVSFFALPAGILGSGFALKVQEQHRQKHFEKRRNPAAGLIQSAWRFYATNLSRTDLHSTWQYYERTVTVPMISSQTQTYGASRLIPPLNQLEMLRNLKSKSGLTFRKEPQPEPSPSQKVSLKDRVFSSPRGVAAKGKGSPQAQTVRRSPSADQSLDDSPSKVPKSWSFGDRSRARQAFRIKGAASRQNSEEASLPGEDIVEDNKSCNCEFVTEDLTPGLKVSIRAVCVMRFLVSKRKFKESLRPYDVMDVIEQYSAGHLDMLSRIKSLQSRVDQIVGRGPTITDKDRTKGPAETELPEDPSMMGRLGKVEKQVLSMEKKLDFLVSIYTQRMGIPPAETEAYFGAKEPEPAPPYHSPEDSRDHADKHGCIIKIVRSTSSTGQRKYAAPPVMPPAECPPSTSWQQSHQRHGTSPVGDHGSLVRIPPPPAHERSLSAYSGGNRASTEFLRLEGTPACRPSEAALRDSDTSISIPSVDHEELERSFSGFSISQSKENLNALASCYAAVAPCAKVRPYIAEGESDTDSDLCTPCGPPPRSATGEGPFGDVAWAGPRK
KCNQ2 pot baseline = also measured in KCNQ2 pot; calls as there; B-score; compound at 10 µM; measured here: initial fluorescence intensity artifact check;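 brightness before thallium and not channel activity; 0 = typical well and far values either way flag optical interference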
Starred values were filed as active, the others as inactive.

KCNQ2 pot	KCNQ2 pot baseline	SMILES
0.97	0.39	COc1ccc(NC(C)=O)cc1NC(=O)CSc1nnc(-c2ccccn2)n1C
0.76	-0.07	CC(=O)NCCc1nc(-c2ccc(Cl)cc2)no1
1.5	-1.6	CCC1(O)CC(C(=O)OC)=NN1C(=O)c1ccccc1 (stereo not given)
0.01	0.02	Nc1nc2ccccc2n1C(=O)c1cccs1
0.37	-0.03	COc1cccc(CN2CCSCC2)c1OC
1.3	-0.08	Cc1cc(C)c(C#N)c(SCS(=O)c2ccc(C(C)(C)C)cc2)n1 (stereo not given)
0.01	0.34	COc1ccc(N(CC(=O)N/N=C/c2cccs2)S(=O)(=O)c2ccc(OC)c(OC)c2)cc1
1.5	-0.85	S=c1[nH]nc(Cc2ccccc2)n1-c1ccccc1
0.15	0.08	CCCCN(CC(=O)NCCOC)C(=O)Cn1nnc2ccccc21
0.89	-0.9	CCOc1cc(Br)c(COc2ccc(C)nc2[N+](=O)[O-])cc1OCC

Copied from the list:
`CCC1(O)CC(C(=O)OC)=NN1C(=O)c1ccccc1` (stereo not given) in KCNQ2 pot baseline: -1.6
`CCCCN(CC(=O)NCCOC)C(=O)Cn1nnc2ccccc21` in KCNQ2 pot baseline: 0.08

Next structures.
KCNQ2 pot	KCNQ2 pot baseline	SMILES
0.01	1.6	COc1ccc(N2C(=O)C3C4C=CC(C4)C3C2=O)c(OC)c1 (stereo not given)
0.62	-0.35	Cn1c(=O)c2c(nc(SCC(=O)NCc3ccc4c(c3)OCO4)n2Cc2ccc(Cl)cc2)n(C)c1=O
1.1	0.41	CC(=O)N1CCN(c2ccc(C(N)=O)cc2[N+](=O)[O-])CC1
1.7	-2.1	CCc1cc2c(=O)nc3n(c2s1)Cc1ccccc1/C3=C(/O)c1cccc([N+](=O)[O-])c1
1.2	0.51	CC1(C)OC(=O)C(=CNc2ccccc2)C(=O)O1
1.6	-0.03	COc1cc(NC(=O)CSc2ccccc2)c(C(=O)O)cc1OC
1.3	-1.1	CC(=O)Nc1ccc(S(=O)(=O)NCC(=O)NNC(=O)c2csc(N3CCOCC3)n2)cc1
7.1*	0.58*	CCCOc1ccc(CN(CCC#N)C(=S)NC(=O)c2ccccc2)cc1
1.4	0.31	CCn1c(N)c(C(=O)NC)sc1=S
0.29	0.43	Cc1cc(C(=O)COC(=O)c2ccco2)c(C)n1Cc1ccco1
0.02	-1.3	Cc1cc(C)nc(NC(=O)c2ccc3c(c2)OCO3)c1
0.06	-0.9	CC(C)CCn1nnnc1C(c1ccccc1F)N1CCC(C(N)=O)CC1 (stereo not given)
0.33	-0.52	NS(=O)(=O)c1cc(C(=O)NCCOc2ccccc2)c(Cl)cc1Cl
1.3	0.45	COc1cc2c(cc1OC)C1=NC(=O)CN1C(SCc1ccc(C)cc1)=N2
0.7	-1.3	Cc1ccc(C)c(NC(=O)CN(C)C(=O)c2ccncc2)c1
0.36	0.55	NC(=O)c1cc(S(=O)(=O)NCCc2ccc(Cl)cc2)cs1
0.27	3	O=C(CCN1CCOCC1)NNC(=O)Nc1cccc(C(F)(F)F)c1
0.55	-2.8	O=c1oc2ccccc2n1Cc1cccc(F)c1
1.3	0.8	Cc1ccc(CNC(=O)CCS(=O)(=O)c2ccc3c(c2)NC(=O)CO3)cc1
0.92	-1.1	Cc1ccc(-c2csc3nnc(SCC(=O)NCc4ccc5c(c4)OCO5)n23)cc1
0.56	1.3	CC(=O)c1nnn(-c2ccc([N+](=O)[O-])cc2)c1C
1.6	-0.75	COc1cc(NC(=O)c2cccs2)c(C(=O)OCC(=O)NCc2ccccc2)cc1OC
0.42	-1.1	O=[N+]([O-])c1ccc(Cl)cc1NCc1cccnc1
0.53	0	Cc1ccc(N2C(=O)[C@@H]3C(c4cccnc4)=NO[C@@H]3C2=O)cc1
0.49	0.83	CCOc1ccccc1N(CC(=O)NCC1CCCO1)C(=O)CCC(=O)Nc1nccs1 (stereo not given)
0.61	1.4	Cc1ccc(NC(=O)Cn2nnc(C(=O)Nc3ccc(F)c(Cl)c3)c2N)cc1
1.5	0.08	COc1cccc(/C=N/NC(=O)CNC(=O)CCc2ccccc2)c1O
0.51	1.3	O=C(c1ccccc1NS(=O)(=O)c1ccc(Br)cc1)N1CCOCC1
0.83	-0.62	CC(=O)/C=C(\C)Nc1ccc(-c2cnc(-c3ccccc3)o2)cc1
0.96	-1	Cc1nc(Nc2ccc(S(N)(=O)=O)cc2)sc1C(=O)Nc1ccccc1
0.7	-0.53	N#Cc1cn(CCOc2ccc(F)cc2)c2ccccc12
3	0	COc1ccc(NC(=O)C2CCCN(S(C)(=O)=O)C2)cc1Cl (stereo not given)
0.71	-1.2	C=C(C)CN(CC)C(=O)COc1ccc(S(=O)(=O)Nc2ccc(OC)cc2)cc1
0.01	-0.09	COc1cc(Cl)ccc1OCc1cc(C(=O)N2CCCCC2c2cccnc2)no1 (stereo not given)
2.5	-0.46	O=C(NCc1cccc(Cl)c1)c1cc(COc2ccc3ncccc3c2)on1
1.1	0.64	COc1ccc(N2CCN(C(=O)Nc3ccc(S(=O)(=O)N(C)C)cc3)CC2)cc1
0.08	-2	Cc1ccc(C)c(N(CC(=O)NC2CCCC2)C(=O)CCC(=O)Nc2cc(C)on2)c1
0.3	-0.06	CC(C)c1ccc2c(c1)C(c1cccs1)=NNC(c1ccncc1)=N2
0.24	1.7	COc1cc(/C=C/C(=O)NCCN2CCOCC2)cc(OC)c1OC
1.2	1.4	Cc1cc(NC(=S)N(CCN2CCCCC2)Cc2ccco2)ccc1Cl
0.53	0.03	O=C(NCc1ccco1)c1cccc(NC(=O)c2ccco2)c1
0.02	-0.15	Cc1cccc(C)c1NC(=O)NNC(=O)c1cc(C(C)(C)C)nn1Cc1ccccc1
1.9	-1.3	CCOC(=O)N1CCN(C(=O)c2ccc3c(c2)NC(=O)/C(=C/c2ccccc2)S3)CC1
0.39	1.9	CCCC(c1nnnn1Cc1ccco1)N1CCC(C(N)=O)CC1 (stereo not given)
2.8	-1.5	Cc1cccc(/C=c2\s/c(=C\C(=O)C(C)(C)C)[nH]c2=O)c1
0.18	0.76	CC1=C(C(=O)Nc2ccccc2)C(c2ccccn2)n2nc(CCCO)nc2N1 (stereo not given)
2.9	0.32	O=C(Nc1ccc2oc(-c3ccncc3)nc2c1)c1cccs1
0.57	0.68	CN(C(=O)COc1ccc(Oc2ccccc2)cc1)C1CCS(=O)(=O)C1 (stereo not given)
0.31	2.4	Cc1ccc(CNC(=O)CCCN2C(=S)NC(C)(C)CC2C)cc1 (stereo not given)
0.72	-0.47	O=C(Nc1cccc(F)c1)N1C2CCC1CC(O)(c1cccnc1)C2 (stereo not given)

Sorted by the number under KCNQ2 pot (largest number first): three of the compounds above
smiles	KCNQ2 pot	KCNQ2 pot baseline
CCCC(c1nnnn1Cc1ccco1)N1CCC(C(N)=O)CC1 (stereo not given)	0.39	1.9
Cc1ccc(CNC(=O)CCCN2C(=S)NC(C)(C)CC2C)cc1 (stereo not given)	0.31	2.4
Cc1cccc(C)c1NC(=O)NNC(=O)c1cc(C(C)(C)C)nn1Cc1ccccc1	0.02	-0.15

New compounds follow
KCNQ2 pot	KCNQ2 pot baseline	SMILES
0.43	-1.2	Cn1nc(C(C)(C)C)cc1NC(=O)Nc1ccc(F)cc1F
1.1	-0.65	CCOc1ccc(C(NC(C)=O)c2ccc(OC)c(OC)c2)cc1 (stereo not given)
4.4	1.1	O=C(Cc1ccc(F)cc1)Nc1ccccc1Sc1ccccc1
0.76	-0.41	COc1cc(C)c(Br)cc1S(=O)(=O)NCc1cccs1
0.74	0.17	O=C(CN1CCN(CC(=O)Nc2ccc3c(c2)OCO3)CC1)Nc1ccc(F)cc1
1.1	0.67	Cc1onc(-c2c(F)cccc2Cl)c1C(=O)N(C)C1CCCCC1
1.7	0.6	CCn1nc(NS(=O)(=O)c2ccc(F)cc2)c2cc3cccc(C)c3nc21
1.2	0.07	CCC1=Nc2cc(C(=O)O)ccc2Sc2ccccc21
0.16	1.1	O=C1c2ccccc2C(=O)c2c1cccc2N(CCO)CCO
1.1	-0.01	C=CCN(CC=C)S(=O)(=O)c1ccc(NC(=S)NC(=O)c2ccc(-c3ccccc3)cc2)cc1
1.9	0.03	Cc1cc(CNC(=O)COc2ccc(F)cc2F)c2ccccc2n1
1.4	-0.11	Cc1ccc(-c2csc(NC(=O)c3ccccc3F)c2C(=O)O)cc1
3.2	-1.2	Cc1cc(/C=N/n2cnnc2)c(C)n1-c1ccc(Cl)cc1Cl
0.09	-0.07	CCN(CC)S(=O)(=O)c1cccc(C(=O)OCC(=O)c2ccc3c(c2)OCCO3)c1
0.1	0.24	COc1ccc(OC)c(NC(=O)N2CCCC(C)C2)c1 (stereo not given)
1	-1.7	O=C(NCc1ccccc1)c1onc(CS(=O)(=O)c2ccc(Cl)cc2)c1C(=O)NCc1ccccc1
0.31	-0.4	CC1CCN(C(=O)CCNS(=O)(=O)c2ccc(Cl)cc2)CC1
1.5	0.28	Nc1nc(SCC(=O)NC2CCCC2)[nH]c(=O)c1NC(=O)c1cccs1
0.17	0.07	CCOC(=O)c1sc2ncn(CC(=O)NCC3CCCO3)c(=O)c2c1C (stereo not given)
1.3	-0.34	O=C1C2CC=CCC2C(=O)N1c1ccc(Cc2ccncc2)cc1 (stereo not given)
1.4	0.84	COc1ccc(/C(O)=C2/C(=O)C(=O)N(c3nc(C)c(C)s3)C2c2ccco2)cc1 (stereo not given)
0.38	-0.27	O=c1ccnc(S/C=C/c2ccccc2)[nH]1
0.08	-0.8	CCOC(=O)CNC(=O)c1cccnc1
2	-1.4	C/C(=N\O)C(=O)OC1CC(C)CCC1C(C)C (stereo not given)
0.1	0.04	Cc1cc(OCC(=O)NN2C(=O)c3ccccc3C2=O)ccc1Cl
0.68	-0.28	CN1C(=O)CSc2ccc(NC(=O)N3CCC(N4CCCCC4)CC3)cc21
0.07	0.19	O=C(O)CCC(=O)Nc1ccc(OCC2CCCO2)cc1 (stereo not given)
1.5	0.05	O=C(N/N=C/c1cccnc1)c1ccc2c(c1)OCCO2
0.74	1.1	Cc1ccc(OCc2cc(C(=O)NC3CCc4ccccc43)no2)cn1 (stereo not given)
0.06	1.6	CCC1=NN(C(=O)Cc2ccccc2)C(O)(c2ccncc2)C1 (stereo not given)

Fetched one by one from the list above:
KCNQ2 pot	KCNQ2 pot baseline	SMILES
0.53	0	Cc1ccc(N2C(=O)[C@@H]3C(c4cccnc4)=NO[C@@H]3C2=O)cc1
1.3	-1.1	CC(=O)Nc1ccc(S(=O)(=O)NCC(=O)NNC(=O)c2csc(N3CCOCC3)n2)cc1
1.9	0.03	Cc1cc(CNC(=O)COc2ccc(F)cc2F)c2ccccc2n1
1.6	-0.03	COc1cc(NC(=O)CSc2ccccc2)c(C(=O)O)cc1OC
0.24	1.7	COc1cc(/C=C/C(=O)NCCN2CCOCC2)cc(OC)c1OC
1.1	-0.65	CCOc1ccc(C(NC(C)=O)c2ccc(OC)c(OC)c2)cc1 (stereo not given)
1.1	0.64	COc1ccc(N2CCN(C(=O)Nc3ccc(S(=O)(=O)N(C)C)cc3)CC2)cc1

Other entries follow:
KCNQ2 pot	KCNQ2 pot baseline	SMILES
1.1	0.52	Cc1cc(NC(=S)NC(=O)/C=C/c2ccc(S(=O)(=O)N3CCOCC3)cc2)ccc1Br
0.81	-1.5	CC(Oc1cccc2cccnc12)C(=O)N/N=C/c1ccccc1 (stereo not given)
0.88	-0.02	CC(C)CC(c1nnnn1C1CCCC1)N1CCN(C(=O)c2ccco2)CC1 (stereo not given)
0.6	1.4	O=C(COc1ccc2ccc(=O)oc2c1)N1CCN(c2ccccc2)CC1
0.29	-0.33	CCN(CC)c1cc(C)c(C#N)c2nc3ccccc3n12
0.96	-0.1	CCN1CCN(Cc2ccc(NC(=O)c3ccc(C)c(NC(=O)c4ccnnc4)c3)cc2C(F)(F)F)CC1
0.88	-1.5	CC12C(=O)N(Cc3ccco3)C(=O)C1C1c3ccccc3C2c2ccccc21 (stereo not given)
1.1	-0.06	Cc1ccc2nc(NC(=O)CSCc3ccccc3)sc2c1
0.3	1.3	O=c1[nH]c(NCCO)nnc1Cc1ccc(Cl)cc1
0.11	0.73	Cn1c(CSCc2ccc(F)cc2)nnc1SCC(=O)Nc1cccc(C(=O)O)c1

Single records, as listed above.
Record of `CC(C)CC(c1nnnn1C1CCCC1)N1CCN(C(=O)c2ccco2)CC1` (stereo not given) = KCNQ2 pot = 0.88; KCNQ2 pot baseline = -0.02
Record of `Cc1cc(NC(=S)NC(=O)/C=C/c2ccc(S(=O)(=O)N3CCOCC3)cc2)ccc1Br` = KCNQ2 pot = 1.1; KCNQ2 pot baseline = 0.52

New compounds follow:
KCNQ2 pot	KCNQ2 pot baseline	SMILES
1.2	-1.8	O=C(O)c1ccccc1NC(=O)C(Cc1ccccc1)N1C(=O)c2ccccc2C1=O (stereo not given)
0.72	0.53	COc1ccc(COCC(O)CN2CCC(C(N)=O)CC2)cc1 (stereo not given)
0.48	0.54	CN1CCN(C(=O)C2=C[C@@H](c3ccc4c(c3)OCO4)C[C@@H](OCc3ccc(CO)cc3)O2)CC1
0.56	-2	O=C1NN(c2ccccc2)C(=O)/C1=C\c1ccccc1OCC(=O)N1CCOCC1
0.83	0.32	O=C(NC(Cc1ccccc1)C(=O)O)c1ccc(S(=O)(=O)N2CCCCC2)cc1 (stereo not given)
1.3	0.89	Cc1nc(N2CCC(C(N)=O)CC2)c2nnn(Cc3ccccc3)c2n1
0.45	0.29	O=C(NC1CC1)c1ccc(S(=O)(=O)NC2CCCCCC2)cc1
0.86	0.01	CCOC(=O)c1c(NC(=O)c2ccc(S(=O)(=O)N(C)CC3CCCO3)cc2)sc2c1CCN(C)C2 (stereo not given)
1.7	-0.02	Cc1cccc(OCc2nnc(SCC(=O)OC3CCCCC3)o2)c1
0.19	-0.02	CCOc1ccc(N(CC(=O)NCCc2ccccc2)C(=O)CCC(=O)Nc2nccs2)cc1
0.67	0.23	O=C(N/N=C/c1ccc(-c2cccc([N+](=O)[O-])c2)o1)c1ccc([N+](=O)[O-])cc1
0.29	0.37	O=C(COC(=O)c1ccc(Br)o1)NCC1CCCO1 (stereo not given)
1.1	1.2	C=C1CCN([C@@H](C)C(=O)NCCCCCC)S(=O)(=O)c2ccccc21

The list is partial; rates above refer to the full screens.
